Assay outcomes (PubChem BioAssay)
AmpC nodet inh = Promiscuous and Specific Inhibitors of AmpC Beta-Lactamase (assay without detergent); Potency, µM (series often up to 28.7 µM), without a hit: top-dose activity change, negative = inhibition; AmpC nitrocefin hydrolysis, absorbance 480 nm, no detergent; potencies from a single point are estimates; 1.8% of 71,000 active; active = falling curve, for most hits resting on a single point; inconclusive = weak or doubtful change; inactive = flat or rising curve; further: % of control where 0% means no effect; about half of the hits show no inhibition at the top dose; a quarter of the inactives give rising signals
Target sequence (P00811 whole entry, looked up): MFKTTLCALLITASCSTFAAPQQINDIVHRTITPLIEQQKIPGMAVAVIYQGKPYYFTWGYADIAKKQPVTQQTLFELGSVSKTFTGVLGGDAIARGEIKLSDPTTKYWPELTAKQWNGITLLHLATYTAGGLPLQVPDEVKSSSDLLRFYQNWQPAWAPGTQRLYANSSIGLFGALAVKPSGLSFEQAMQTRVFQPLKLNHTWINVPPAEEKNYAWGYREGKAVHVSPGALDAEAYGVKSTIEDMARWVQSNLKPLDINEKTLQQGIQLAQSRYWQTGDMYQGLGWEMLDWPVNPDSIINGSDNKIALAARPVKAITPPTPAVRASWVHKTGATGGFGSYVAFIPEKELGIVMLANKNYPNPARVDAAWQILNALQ
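AmpC in 20 mM phosphate buffer pH 7.0 was preincubated 15 min at room temperature with compounds. Nitrocefin (800 uM stock) was then added and hydrolysis followed at 480 nm every 20 s for 4 min.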
Numbers without * were called inactive; u = inconclusive; [ ] = dose if it differs, or a comment. Potency means the concentration at half of the fitted maximal effect. These rows are one share of the data (hit frequency here may not be typical).

SMILES | AmpC nodet inh
COc1cc(S(=O)(=O)N2CCCCC2)ccc1NC=O | -5%
O=C(Nc1ccccc1)N1CCC2(CC1)CCN(C(=O)Oc1ccccc1)CC2 | 30%
Clc1cccc(Nc2c3c(nc4ncnn24)CCC3)c1 | 29%
O=C(c1csc2c1CCCC2)N1CCN(c2ccccc2)CC1 | 33%
CC(NC(=O)C1CCCN(S(=O)(=O)c2cnc[nH]2)C1)c1ccccc1 (stereo unspecified) | -8%
COc1cc(OC)c(C(=O)Nc2ccc(S(=O)(=O)Nc3ncccn3)cc2)cc1OC | -7%
COCCn1nnnc1C(c1cccs1)N1CCN(c2nc3ccccc3s2)CC1 (stereo unspecified) | 132%
O=C(c1ccccc1)N(c1ccccc1)C1C=CS(=O)(=O)C1 (stereo unspecified) | 11%
COC(=O)c1ccccc1NC(=O)Nc1cc(C)cc(C)n1 | 4%
N[C@@H](Cc1ccc(N(CCCl)CCCl)cc1)C(=O)O | 93%
CCN(CCCNC(=O)CCn1c(=O)[nH]c2ccccc2c1=O)c1ccccc1 | 28%
COc1ccc(N2CCN(Cc3nc(-c4ccc(Cl)cc4Cl)no3)CC2)cc1 | 53%
O=C(NC1CCCCC1)C1CCN(c2nnnn2-c2ccccc2)CC1 | 27%
COC(=O)c1cn(NC(=O)c2ccncc2)c(=O)c2ccccc12 | -4%
C=CCn1c(=O)/c(=C/c2ccc(F)cc2)s/c1=C(\C#N)c1nnc2n1CCCCC2 | 125%
C=CCNC(=O)Nc1ccc(OCC)cc1 | -10%
CC(C(=O)N1CCN(C=O)CC1)N1C(=O)c2ccccc2C1=O (stereo unspecified) | u
CCSc1cc(C2C(C#N)=C(N)OC(C)=C2C(=O)OC)c(C)o1 (stereo unspecified) | 2%
O=C(NC1CCN(Cc2ccccc2)CC1)C1CCCN(c2nnc(-n3cccc3)s2)C1 (stereo unspecified) | 29%
CNC(=O)OCC[N+](C)(C)C | 3%
CCC(C)NC(=O)CN(c1ccc2c(c1)OCO2)S(=O)(=O)c1c(C)n[nH]c1C (stereo unspecified) | 19%
O=C(O)Cc1nn(Cc2ccc(Br)cc2F)c(=O)c2ccccc12 | 23%
c1cnc2c(c1)ccc1cccnc12 | -14%[5.75 µM]
c1ccc(CN2CCC3(CCCc4ccccc43)CC2)cc1 | 21%
CCn1c(NCc2cc(OC)ccc2OC)nc2ccccc21 | 11%
Cn1c(=O)cc(OCC(=O)Nc2ccccn2)c2ccccc21 | 8%
Cc1cccc(OCC(O)CN2C(C)(C)CC(O)CC2(C)C)c1 (stereo unspecified) | 18%
CCOC(=O)c1ccc2c(c1)nc(SCC(=O)N1CCCCC1)n2CC | 61%
CCOc1ccc(-c2nnc(SCc3nnc(-c4ccccc4)o3)n2-c2ccccc2F)cc1 | 49%
CCC(C)C(=O)N1CCc2cc(-c3csc(N)n3)ccc21 (stereo unspecified) | 8%
COc1ccc(NC(C)=O)cc1NC(=O)CN1CCN(S(=O)(=O)c2ccc(C(C)C)cc2)CC1 | 5%
O=C(CN1C(=O)c2ccccc2C1=O)Nc1nnc(C2CCCO2)s1 (stereo unspecified) | -7%
CC1Cc2cc(/C(O)=C3/C(=O)C(=O)N(CCN4CCOCC4)C3c3cccc(O)c3)ccc2O1 (stereo unspecified) | -1%
Cc1ccc(NC(=O)c2cc(-c3ccco3)on2)cc1C | u
O=C(Nc1cccc(Cl)c1Cl)c1ccncc1 | 13%
Cc1cc(C(=O)CC#N)c(C)n1CC(F)(F)F | 2%
O=C(Nc1ccc(Cl)cc1)N1CCC(c2nc(-c3cccs3)no2)CC1 | -9%
Clc1ccccc1-c1nn2c(Cn3cnc4ccccc43)nnc2s1 | 20%
CCOC(=O)C1CCCN(C2CC(=O)N(c3cccc(C(F)(F)F)c3)C2=O)C1 (stereo unspecified) | 91%
CCn1cc(C2=NOC(C(=O)Nc3c(C)nn(Cc4ccc(F)cc4)c3C)C2)c(C)n1 (stereo unspecified) | 78%

Given as labelled records: entries from further up
O=C(Nc1ccc(Cl)cc1)N1CCC(c2nc(-c3cccs3)no2)CC1
- AmpC nodet inh: -9%

Clc1ccccc1-c1nn2c(Cn3cnc4ccccc43)nnc2s1
- AmpC nodet inh: 20%

(further entries)
SMILES | AmpC nodet inh
CCCNc1nc2c(c(=O)[nH]c(=O)n2C)n1Cc1ccc(F)cc1 | 0%
O=C(CC12CC3CC(CC(C3)C1)C2)NCO | 17%
COc1ccc(-c2ccc(SCC(=O)NCc3ccco3)nn2)cc1 | 10%
COC(=O)c1ccccc1S(=O)(=O)N(CCCO)Cc1cc2c(C)ccc(C)c2[nH]c1=O | 107%
CCc1cccc(NC2c3ccccc3C(=O)N2c2ccc(C)cn2)c1 (stereo unspecified) | 43%
O=C(c1ccc(F)cc1)C1CCN(C(=O)N2CCOCC2)CC1 | 15%
Cc1nnc(NC(=O)c2ccc3c(c2)C(=O)N(CC2CCCO2)C3=O)s1 (stereo unspecified) | 20%
CCSc1ccccc1C(=O)Nc1cc(C)on1 | -8%
Cc1ccc(-c2nc(NC(=O)CSc3nnc(C)s3)ns2)cc1 | 4µM*[single pt active]
Cc1cccc(C)c1NC(=O)CS(=O)CC(=O)NC1CCN(Cc2ccccc2)CC1 (stereo unspecified) | -1%
Cc1cc(Nc2cccc(Cl)c2C)n2ncnc2n1 | 5%
O=C(c1ncn[nH]1)N1CCN(c2nc(-c3ccccc3)cs2)CC1 | 21%
O=C(c1ccc2nc(-c3ccco3)c(-c3ccco3)nc2c1)N1CCC2(CC1)OCCO2 | 61%
Cc1nc2cnc(N(C)C)nc2n(-c2ccccc2)c1=O | 12%
O=C(Nc1ccc(Br)cc1)c1cnccn1 | -1%
O=C(NCC1CCCO1)NC1(C(F)(F)F)Oc2ccccc2O1 (stereo unspecified) | -7%
CO[C@H]1C=CO[C@]2(C)Oc3c(C)c(O)c4c(O)c(c5c(c4c3C2=O)NC2(CCN(CC(C)C)CC2)N=5)=NC(=O)C(C)=CC=C[C@@H](C)[C@@H](O)[C@@H](C)[C@@H](O)[C@@H](C)[C@@H](OC(C)=O)[C@@H]1C | 132%[12.8 µM]
O=C(O)c1ccc2cccc(Cl)c2c1O | -14%
N#Cc1c(NC(=O)CSc2ncnc3c2cnn3-c2ccccc2Cl)sc2c1CCCC2 | -7%
Cn1nnnc1SCC(=O)Nc1cc(C(C)(C)C)nn1-c1ccccc1 | 8%
Cc1cc(OC(=O)c2ccc(S(=O)(=O)N(C)C)cc2)cc(=O)o1 | -13%
C=C(C)[C@H]1Cc2c(ccc3c2O[C@@H]2COc4cc(OC)c(OC)cc4[C@@H]2C3=O)O1 | 75%
Cn1c(=O)[nH]c(=O)c2c1nc(CN1CCN(c3ccc(F)cc3)CC1)n2CCN1CCOCC1 | 68%
CCCCn1c(SCC(=O)Nc2nnc(C(C)C)s2)nc2c1c(=O)n(C)c(=O)n2C | 109%
COc1cccc(Nc2ncc3nc(-c4ccc(F)cc4)c(=O)n(C[C@H]4CCCO4)c3n2)c1 | -4%
c1ccc(-c2nn3c(Cn4nnc5ccccc54)nnc3s2)cc1 | -3%
O=C(CSc1nc2c(cnn2-c2ccc(F)cc2)c(=O)[nH]1)N1CCCc2ccccc21 | 44%
COC(=O)C1=C(C)N(c2ccc(OC)c(OC)c2)C(=O)C1 | 27%
COc1cc(CO)cc(Br)c1OCC(=O)O | 58%
CCCc1nc2oc3c(NCc4ccccn4)ncnc3c2c2c1COC(C)(C)C2 | 104%

21 entries from above, tab-delimited:
Molecule	AmpC nodet inh
Cc1nnc(NC(=O)c2ccc3c(c2)C(=O)N(CC2CCCO2)C3=O)s1 (stereo unspecified)	20%
CCSc1ccccc1C(=O)Nc1cc(C)on1	-8%
Cc1ccc(-c2nc(NC(=O)CSc3nnc(C)s3)ns2)cc1	4µM*[single pt active]
Cc1cccc(C)c1NC(=O)CS(=O)CC(=O)NC1CCN(Cc2ccccc2)CC1 (stereo unspecified)	-1%
Cc1cc(Nc2cccc(Cl)c2C)n2ncnc2n1	5%
O=C(c1ncn[nH]1)N1CCN(c2nc(-c3ccccc3)cs2)CC1	21%
O=C(c1ccc2nc(-c3ccco3)c(-c3ccco3)nc2c1)N1CCC2(CC1)OCCO2	61%
Cc1nc2cnc(N(C)C)nc2n(-c2ccccc2)c1=O	12%
O=C(Nc1ccc(Br)cc1)c1cnccn1	-1%
O=C(NCC1CCCO1)NC1(C(F)(F)F)Oc2ccccc2O1 (stereo unspecified)	-7%
CO[C@H]1C=CO[C@]2(C)Oc3c(C)c(O)c4c(O)c(c5c(c4c3C2=O)NC2(CCN(CC(C)C)CC2)N=5)=NC(=O)C(C)=CC=C[C@@H](C)[C@@H](O)[C@@H](C)[C@@H](O)[C@@H](C)[C@@H](OC(C)=O)[C@@H]1C	132%[12.8 µM]
O=C(O)c1ccc2cccc(Cl)c2c1O	-14%
N#Cc1c(NC(=O)CSc2ncnc3c2cnn3-c2ccccc2Cl)sc2c1CCCC2	-7%
Cn1nnnc1SCC(=O)Nc1cc(C(C)(C)C)nn1-c1ccccc1	8%
Cc1cc(OC(=O)c2ccc(S(=O)(=O)N(C)C)cc2)cc(=O)o1	-13%
C=C(C)[C@H]1Cc2c(ccc3c2O[C@@H]2COc4cc(OC)c(OC)cc4[C@@H]2C3=O)O1	75%
Cn1c(=O)[nH]c(=O)c2c1nc(CN1CCN(c3ccc(F)cc3)CC1)n2CCN1CCOCC1	68%
CCCCn1c(SCC(=O)Nc2nnc(C(C)C)s2)nc2c1c(=O)n(C)c(=O)n2C	109%
COc1cccc(Nc2ncc3nc(-c4ccc(F)cc4)c(=O)n(C[C@H]4CCCO4)c3n2)c1	-4%
c1ccc(-c2nn3c(Cn4nnc5ccccc54)nnc3s2)cc1	-3%
O=C(CSc1nc2c(cnn2-c2ccc(F)cc2)c(=O)[nH]1)N1CCCc2ccccc21	44%

Continuation:
SMILES | AmpC nodet inh
CC(=O)Nc1ccccc1-c1ccc(C)o1 | 10%
Cc1ccccc1-n1c(SCC(=O)NCc2cccs2)nnc1-c1ccncc1 | 27%
Cc1noc(C)c1-c1cc(N(C)C)ncn1 | -10%
C=CCn1c(SCC(=O)Nc2ccc(C(=O)OC(C)C)cc2)nnc1-c1cccs1 | 24%
COc1cc2nc(CN3CC=C(c4ccccc4)CC3)[nH]c(=O)c2cc1OC | 144%
Cc1ccc(S(=O)(=O)NCCSc2nnnn2-c2ccc(C(N)=O)cc2)cc1 | -19%
OCCN1CCN(CCSc2ccccc2)CC1 | 17%
C/C(Cl)=C/Cn1c(SCc2ccc(Cl)cc2)nc2c1c(=O)[nH]c(=O)n2C | -1%
Cc1cc(=O)oc2cc(NC(=O)CCCC(=O)O)ccc12 | -21%
Cc1cc2oc(=O)cc(CN3CCN(S(=O)(=O)c4ccc5c(c4)OCCO5)CC3)c2cc1C | 9%
CC(C)(CSc1nncn1/N=C/c1ccco1)NS(=O)(=O)c1ccc(Cl)cc1 | 46%
CCOC(=O)N1CCN(CC(=O)Nc2cc(C)nn2-c2nc3ccccc3s2)CC1 | 108%
Cc1cccc(-c2noc(Cc3ccc(Cl)cc3)n2)c1 | -19%
CCN(CC)c1ccc(NC(=O)CSc2nc(C)cc(=O)[nH]2)cc1 | -2%
CCOC(=O)c1c(NC(=O)CSc2nnc(CN3CCOCC3)n2C)sc2c1CCCC2 | -5%
CCOC(=O)C1CCCN(c2c(NCCc3ccc(S(N)(=O)=O)cc3)c(=O)c2=O)C1 (stereo unspecified) | 4µM*[single pt active]
CCOC(=O)CSc1nc2ccccc2c(=O)n1CCN1CCOCC1 | 54%
CCn1c(=O)cc(OCC(=O)N2CCc3ccccc32)c2ccccc21 | 4%
COc1ccc(S(=O)(=O)N(Cc2ccccc2)Cc2nc3ccccc3c(=O)[nH]2)cc1 | -8%
CC(=O)c1ccc(NC(=O)C2CCC(C)(C(=O)O)C2(C)C)cc1 (stereo unspecified) | 0%
COc1ccc(N(C(C)=O)C2C=CS(=O)(=O)C2)c(OC)c1 (stereo unspecified) | 0%
CCOC(=O)c1ccc(NC(=O)c2c(C)[nH]c(C(=O)OCC)c2C)cc1 | 33%
Cc1noc(C)c1C(=O)N1CCC2(CCCN(C(=O)Nc3ccccc3)C2)CC1 | 2%
Clc1ccc(Cc2noc(-c3cccs3)n2)cc1 | -8%
COc1ccc(N2CCN(C(=O)CCCC3=NS(=O)(=O)c4ccccc4N3)CC2)cc1 | 38%
CCN1CCCC1Cn1cnc2c([nH]c3ccc(Cl)cc32)c1=O (stereo unspecified) | 0%
O=C(CCCCCN1C(=O)C2C3C=CC(C3)C2C1=O)Nc1nccs1 (stereo unspecified) | 2µM*[single pt active]
COCCN1Cc2cccc(C(=O)Nc3ccc(S(=O)(=O)N4CCCCC4)cc3)c2C1=O | 47%
OC(CN1C2=NCCCN2c2ccccc21)c1ccc(Cl)cc1 (stereo unspecified) | 4µM*[single pt active]
CCC(Sc1nc(C)cc(C)n1)C(=O)O (stereo unspecified) | -1%
COc1cccc(Cn2c(=O)c(-c3cn(C)c4ccccc34)nc3cncnc32)c1 | -5%
O=C(Oc1ccc(N(Cc2cccs2)C2=NS(=O)(=O)c3ccccc32)cc1)c1ccco1 | -8%
CC12CCC(C(=O)N3CCCc4ccccc43)(CC1=O)C2(C)C (stereo unspecified) | 17%
O=C(Nc1ccccc1C(F)(F)F)N1CCCC(O)C1 (stereo unspecified) | -4%
CCOC(=O)C1C(=O)NC(N2CCOCC2)=NC1c1ccco1 (stereo unspecified) | 0%
